Assay outcomes (PubChem BioAssay)
TRPML1 agonist: activates the human TRPML1 channel | Q9GZU1 | TRPML1-expressing cells, Ca2+ dye fluorescence, FDSS; host cell line not named in the record; reference of the full effect not given here | activation, % (test concentration not listed) | actives 0.12% (n = 410,000) | AID 624414; in the data active = activation above about 50%; inconclusive = about 30% to 50%; inactive = below about 30%; also: 0% is about no effect; the text of the record puts the active cut at 80%
Target sequence (Q9GZU1 whole entry, looked up): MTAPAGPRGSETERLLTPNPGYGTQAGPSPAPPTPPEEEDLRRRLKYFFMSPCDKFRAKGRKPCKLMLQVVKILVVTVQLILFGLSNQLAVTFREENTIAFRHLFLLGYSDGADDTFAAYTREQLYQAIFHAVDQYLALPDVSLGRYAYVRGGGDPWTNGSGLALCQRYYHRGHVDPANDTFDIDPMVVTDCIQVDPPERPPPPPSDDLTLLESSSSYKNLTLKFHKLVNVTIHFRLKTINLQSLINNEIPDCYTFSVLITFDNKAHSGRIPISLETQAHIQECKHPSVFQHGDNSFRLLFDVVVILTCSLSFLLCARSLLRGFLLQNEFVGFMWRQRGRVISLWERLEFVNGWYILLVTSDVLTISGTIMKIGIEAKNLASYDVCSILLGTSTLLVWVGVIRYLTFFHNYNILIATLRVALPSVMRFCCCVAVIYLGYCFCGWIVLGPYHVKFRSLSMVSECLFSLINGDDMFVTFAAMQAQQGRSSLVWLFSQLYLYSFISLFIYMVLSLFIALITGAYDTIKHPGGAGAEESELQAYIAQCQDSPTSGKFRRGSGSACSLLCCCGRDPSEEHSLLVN
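Agonist activity was taken from a 110 s kinetic Ca2+ dye read on the FDSS after pinning compounds onto TRPML1-DL cells. The cells were seeded at 1,500/well with Tet inducer, incubated about 16 h, then dye-loaded at room temperature.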
TRPML1 blocker: human mucolipin-1 channel inhibition | Q9GZU1 | TRPML1-inducible cells, Ca2+ dye fluorescence, FDSS; stronger effect = lower value; inhibition of EC80 agonist-evoked calcium signal | activity change, negative = inhibition, % (test concentration not listed) | actives 0.02% (n = 390,000) | AID 624415; in the data active means activity change below about -50%; inconclusive means about -30% to -50%; inactive means above about -30%;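 also: stimulus is agonist 54-4 at its EC80 concentration; % is scaled to controls: 0 for no effect and ±100 for the full control effect; compound concentration not given in the record; the text of the record puts the active cut at -80%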
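Tet-induced TRPML1-DL cells loaded with Ca8 no-wash calcium dye were read kinetically on FDSS. Compound addition was followed by EC80 agonist 54-4 (4 uM final); inhibition was read over 110 s.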
gsp antagonist: antagonizes gsp, the McCune-Albright syndrome mutation; gsp-mutant cells, cAMP HTRF, 30 min; control for the full effect not named in the record; Potency, µM (highest dose often 76.9 µM), without a hit: at the top dose activity change, negative = inhibition, hits mostly inhibitors; actives 0.4% (n = 340,000); AID 624288; active = falling curve of any shape with a large fitted effect; inconclusive = falling curve, mostly with a smaller effect; inactive = flat or rising curve; cell line not stated here;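 also: intracellular cAMP measured with PDE inhibitor Ro 20-1724 present during compound exposure; potency is read from the fitted curve at half-maximal effect; % is scaled to controls: 0 for no effect and ±100 for the full control effect; nearly all actives have a fitted effect of over 65% in size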
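G418-selected cells were plated in DMEM/10% FBS for 16-24 h at 37C, then treated with compounds plus the PDE inhibitor […] (300 uM solution added) for 30 min at 37C. Intracellular cAMP was measured by HTRF after 30 min lysis at room temperature.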
ClpP mod: qHTS Assay for Activators of ClpP; ATP-dependent Clp protease proteolytic subunit (Bacillus subtilis (strain 168)), P80244; purified B. subtilis ClpP, FRET peptide cleavage, 20 min; Potency, µM (titrated, usually from 57.5 µM), inactives show at the top dose activity change, negative = active; actives 1.9% (n = 340,000); active = well fitted falling curve with a large enough effect; inconclusive = small, poorly fitted or top-dose-only effect; inactive = no such curve, though single readings can be large or run the other way; also: potency is read from the fitted curve at half-maximal effect; the source files actives as falling curves though it sought activators and does not explain the sign; nearly all actives have a fitted effect of over 65% in size; many hits overshoot -100%
Target sequence (P80244 whole entry, looked up): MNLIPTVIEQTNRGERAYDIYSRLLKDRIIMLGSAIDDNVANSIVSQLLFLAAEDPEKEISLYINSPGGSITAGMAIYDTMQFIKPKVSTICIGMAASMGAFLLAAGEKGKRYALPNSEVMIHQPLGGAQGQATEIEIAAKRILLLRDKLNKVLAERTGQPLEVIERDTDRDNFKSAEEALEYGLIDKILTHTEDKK
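FRET quenching reversal measured ClpP activation: 10 microg/mL B. subtilis ClpP at pH 8 with the FRET-FV decapeptide, read at 430 nm after 320 nm excitation. The 20-min minus 0-min signal was scaled between DMSO/no-enzyme wells and ADEP (5.8 microM final).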
Menin-MLL FL inh: displaces fluorescein MLL peptide from human menin | Fluorescence polarization, fluorescein-MLL peptide displacement from menin | FP activity change, % at 61.4 µM | 290,000 tested, under 10 active; inconclusive = falling polarisation curve, or a change in total fluorescence; inactive = total fluorescence flat and polarisation flat or rising; no compound was filed as active; the % refers to the polarisation; negative = inhibition;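 also: % of control where 0% means no effect; inhibitors lower the polarisation; unlabelled MLL peptide was the positive control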
gsp agonist: gsp mutant agonism; actives 0.13% (n = 340,000); gsp mutant cells, cAMP HTRF, 30 min; control for the full effect not named in the record; Potency, µM (titrated, usually from 76.9 µM), for inactives: top-dose activation (cAMP increase), usual class: activators; active = well fitted activation curve with a large enough effect; inconclusive = small, poorly fitted or top-dose-only effect, or another doubt; inactive = no such curve, though single readings can be large or run the other way; cell line not stated here;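 also: phosphodiesterase inhibitor Ro 20-1724 added with compounds to block cAMP breakdown; potency is read from the fitted curve at half-maximal effect; nearly all actives have a fitted effect of over 60% in size; about a fifth of the inactives were tested at one dose only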
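Cells stably selected in G418 were plated at 2000/well, grown 16-24 hr, then given compounds in DMSO with the PDE inhibitor […] (300 uM solution added) for 30 min at 37C; cAMP was read by HTRF.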
* marks the source's active call; other numbers are inactive results; ? = inconclusive; / = not tested or not shown; & = joins results of further samples; [ ] = another dose, or the depositor's remark.

SMILES | TRPML1 agonist | TRPML1 blocker | gsp antagonist | ClpP mod | Menin-MLL FL inh | gsp agonist
COc1cccc(NC(=O)CN(C)C(=O)c2cc(C3CC3)nn2-c2ccccc2)c1 | 2.9 | 15.7 | ? | 0.5% | / | -36.8%[inhibitor]
CN(C)CCN(Cc1ccco1)C(=O)c1oc2ccccc2c1NC(=O)c1ccccc1 | 1.5 | 7.6 | / | -4.9% | / | /
CCCCn1c(=O)c(Cc2ccccc2)c(O)c2ccccc21 | -1.7 | -7.5 | -5.9% | 14.1µM* | -1.2 | 8.6%
O=C(COC(=O)C1CCN(c2ccc(C(F)(F)F)cn2)CC1)Nc1ccc(F)cc1[N+](=O)[O-] | 3.2 | 22.7 | 1.4% | / | / | -6.4%[15.4 µM]
COc1cc(NC(=O)C2CCN(S(=O)(=O)c3c(C)noc3/C=C/c3ccccc3F)CC2)cc(OC)c1OC | -0.3 | 28.8 | / | 0.6% | / | /
CCCOc1ccc(C(=O)Nc2cc(S(=O)(=O)N3CCOCC3)ccc2N2CCN(CC)CC2)cc1OC | 0.5 | 3.1 | -7.1% | -5.2% | / | 29.5%
CN(C)S(=O)(=O)c1ccc(SCC(=O)Nc2cccc(S(=O)(=O)N3CCCC3)c2)nc1 | -0.7 | -8.0 | -8.9% | 1.5% | / | 1.9%
O=C(CN(Cc1ccc(Cl)cc1)C(=O)c1csnn1)NCc1ccccc1 | 0.1 | 0.2 | -6.2% | / | 0.5 | 0.1%
Cc1ccc(NC(=O)CSc2nnc(N)s2)cc1S(=O)(=O)N1CCCCC1 | 0.1 | 14.5 | -1.0% | -1.4% | -0.1 | -30.5%[inhibitor]
Cc1nc(N2CCC(C)CC2)c2c(C)c(C(=O)Nc3ccc(C)c(F)c3)sc2n1 | 0.3 | -9.7 | 17.0% | / | -11.6 | -2.1%
CCCc1nc2ccccc2c(=O)n1CC(=O)c1ccccc1 | 1.4 | 19.7 | -0.6% | 1.8% | 3.7 | 1.0%
CCCCN(CC)C(=O)Cc1ccc(Br)cc1 | 2.0 | -22.3 | 3.9% | 1.4% | 3.6 | 13.6%
Cc1cc(C)cc(NC(=O)C(=O)NCC2CCCO2)c1 (centres undefined) | 0.5 | 4.6 | -21.2% | 2.2% | 2.3 | -0.2%
CC(=O)Nc1ccc(NC(=O)CSc2nc(C)nc3sc(C)c(C)c23)cc1 | -0.4 | 5.4 | 20.4% | / | -1.0 | -3.7%[15.4 µM]
CC(C)(C)c1ccc(Cn2c(Cc3ccccc3)nc3ccccc32)cc1 | 2.2 | 69.0 | / | -0.9% | / | /
Cc1ccc(S(=O)(=O)N2CCCCC2)cc1C(=O)c1nccn1C | 0.1 | 1.4 | 2.3% | 0.9% | 1.7 | -13.6%
O=C(CCn1cnnn1)Nc1ccc(Cl)c(Cl)c1 | 1.1 | 52.6 | 14.8% | / | 5.8 | 5.2%[15.4 µM]
C=CCN1C(=O)NC(c2ccccc2)(C(F)(F)F)S/C1=C(\C#N)c1nnc(N2CCOCC2)n1-c1ccccc1 (centres undefined) | 1.1 | -0.9 | -5.9% | -3.2% | 0.1 | -69.5%[inhibitor]
COc1cccc(NC(=O)CSc2ccc(-c3sc(C)nc3C)nn2)c1 | 1.3 | -7.0 | -20.8% | -1.0% | -0.2 | -5.2%
CCOC(=O)c1ccccc1Cc1nc2ccccc2c(=O)[nH]1 | -0.4 | 3.8 | 6.2% | -3.1% | -0.5 | 0.0%
Cc1ccc(S(=O)(=O)n2nc(-c3cccnc3)nc2N)cc1 | -0.8 | 4.6 | -3.2% | 0.0% | 1.0 | ?
COc1cccc(NS(=O)(=O)c2cc3c(cc2C)NC(=O)CO3)c1 | -0.4 | -8.3 | 1.0% | 1.2% | 0.1 | 23.8%
Cc1nn(CCCC(=O)NCCc2ccc(Cl)cc2)c(=O)c2c1sc1ccccc12 | 0.9 | 6.4 | / | -9.7% | / | /
COc1cc2c(cc1OC)CN(C(=O)CSc1nc(N)c(C#N)cc1C#N)CC2 | -0.5 | 5.5 | 3.3% | -14.8% | 13.4 | 24.0%
COc1cccc(N2CCN(S(=O)(=O)c3ccc4c(c3)CCCN4C(C)=O)CC2)c1 | 1.3 | 23.9 | / | 0.2% | / | /
COc1ccc(CNc2ccc3c(c2)CCC3)cc1Br | -0.4 | 2.5 | 3.8% | -2.6% | -1.3 | -31.1%
C#CCOCCOCCOCCNc1nc(N2CCN(C(=O)C([C@@H](C)CC)n3cc(C(N)COC(=O)C(F)(F)F)nn3)CC2)nc(N2CCN(C(=O)[C@H](CCCCN)n3cc(C(N)CC(C)C)nn3)CC2)n1 (some centres undefined) | -0.7 | -7.6 | 10.9% | -3.8% | / | /
O=C(CCCNS(=O)(=O)c1cccc2nsnc12)NC1CCCCC1 | -0.7 | -10.3 | ? | -1.8% | -0.5 | 15.6%
O=S1(=O)c2ccccc2N(Cc2cccc(Cl)c2)c2ccccc21 | 1.8 | -10.2 | / | ? | / | /
Cc1cc(C(F)(F)F)c2sc(N)nc2n1 | 0.1 | 18.3 | -1.9% | ? | 4.3 | -6.6%
O=C(Cc1ccc([N+](=O)[O-])cc1)N/N=C/c1ccc([N+](=O)[O-])o1 | 0.7 | 0.9 | 7.1% | -1.2% | 0.6 | ?
Cc1nn(C(C)(C)C)c(OC(=O)c2c(F)cccc2F)c1Sc1ccccc1 | 0.8 | 20.7 | / | -3.8% | / | /
COCCCNC(=O)/C(C#N)=C/c1c(N2CCCCCC2)nc2ccccn2c1=O | -0.3 | -12.4 | 4.0% | / | 7.0 | ?
COc1ccc(OC(C)C(=O)Nc2cccc(F)c2)cc1 (centres undefined) | 0.5 | 3.6 | -9.4% | / | -2.9 | -1.2%[15.4 µM]
O=C(COC(=O)c1ccccc1F)NCc1ccc2c(c1)OCO2 | -1.6 | 13.1 | 6.1% | 0.3% | / | -0.6%
O=C(Cn1ncc2c3ccccc3n(Cc3ccc(F)cc3)c2c1=O)NCc1ccccn1 | 0.5 | 0.5 | / | -24.0% | / | /
Cc1ccc(CSc2ccc(-c3cccs3)nn2)cc1 | 3.3&2.8 | -19.2&-17.3 | 7.5% | -1.6%&-1.4% | -1.8 | 4.6%[15.4 µM]
Nc1nonc1-n1nnc(C(=O)N/N=C/c2cccnc2)c1-c1ccccc1 | -0.3 | -11.0 | -6.6% | 0.0% | -0.3 | ?
COc1ccccc1-c1nnc2n(CCc3ccccc3)c(=O)c3ccccc3n12 | 0.9 | 37.8 | / | ? | / | /
CS(=O)(=O)Oc1ccc2c(c1)O/C(=C\c1cccc([N+](=O)[O-])c1)C2=O | 1.0 | 1.3 | -3.1% | -2.7% | -4.1 | -13.1%
O=C(CSc1nc2c([nH]c3ccccc32)c(=O)n1-c1ccc(F)cc1)N1CCCCCC1 | 0.1 | 4.3 | / | -0.6% | / | /
CCOC(=O)N1CCN(C(=O)CSc2ccc(-c3ccc(OC)c(OC)c3)nn2)CC1 | 1.5 | 32.9 | 2.9% | ? | 3.5 | 6.6%[15.4 µM]
Cc1ccc(S[C@@H](CCN2CC[C@H](O)CCC2=O)c2ccccc2)cc1 | -0.1&0.4 | -4.1 | 2.1% | 0.2%&-1.2% | 0.7 | 25.0%
CCOc1ccccc1NC(=O)NC(C)c1ccncc1 (centres undefined) | 1.6 | 7.5 | 0.8% | -1.3% | -1.6 | 8.5%
COc1cccc2cc(C(=O)Nc3ccccc3C(=O)N3CCOCC3)oc12 | -0.4 | -0.2 | 4.7% | / | 3.1 | 5.8%
Cc1ccc2[nH]c(=O)c3cc(C(=O)N4CCN(c5ccccc5F)CC4)sc3c2c1 | -0.2 | 37.2 | / | -1.6% | / | /
CCOC(=O)c1ccc2c(c1)n(CCCS(=O)(=O)[O-])c(/C=C/c1ccc(Cl)cc1)[n+]2CC | 0.3 | -9.2 | 5.4% | / | -1.3 | -15.8%[15.4 µM]
O=C(NCc1ccc(F)cc1)c1ccc(CS(=O)Cc2ccccc2Cl)o1 (centres undefined) | 0.2 | -8.6 | 2.5% | 1.2% | / | -16.6%
NCCCCCCNS(=O)(=O)c1cccc2c(Cl)cccc12 | 0.6&0.9 | 16.5 | -4.0% | -16.8%&-20.6% | -2.5&-9.2&-23.4 | /
COc1ccc(CNC(=O)CN(c2ccc(C(C)C)cc2)S(=O)(=O)c2c(C)noc2C)cc1 | 4.0 | 25.9 | -13.7% | -1.1% | / | -1.1%
Going on with the list:
SMILES | TRPML1 agonist | TRPML1 blocker | gsp antagonist | ClpP mod | Menin-MLL FL inh | gsp agonist
O=[N+]([O-])c1ccccc1Nc1cccc(F)c1 | 1.2 | -2.9 | 0.7% | / | / | 5.3%
O=C(COC(=O)/C=C/c1cccs1)Nc1ccccc1Cl | -0.7 | 8.8 | -0.6% | / | -4.0 | -6.9%
CCC(CC)C(=O)Nc1cccc(C(=O)Nc2ccc(S(=O)(=O)Nc3ccc(C)cc3)cc2)c1 | 1.5 | 7.6 | 0.4% | -17.3% | 2.8 | -22.0%
CN(Cc1ccccc1)C(=O)C1CCCN(Cc2cccc(Cl)c2)C1 (centres undefined) | 0.3&-0.1 | -5.4&-22.2 | 10.1% | 1.5%&1.7% | 0.6 | -7.1%
COc1cc(/C=N/Nc2nc(=O)[nH]nc2C)cc(OC)c1O | -0.5 | 7.0 | -5.3% | / | 16.7 | -1.3%[15.4 µM]
CC(=O)Nc1ccc(S(=O)(=O)Nc2ccc3c(c2)n(C)c(=O)n3C)c(C)c1 | 0.9&-0.4 | -9.6&2.9 | 7.6% | -2.9% | -1.8 | ?
COCCNS(=O)(=O)c1ccc(OCC(=O)N2CCc3ccccc3C2)c(Cl)c1 | -0.5 | 9.0 | -16.0% | -1.3% | -1.5 | 21.2%
C=C(CC[C@@H](O)C(C)(C)O)[C@H]1CC[C@]2(C)[C@@H]1CCC1[C@@]3(C)CC[C@H](O)C(C)(C)C3CC[C@]12C (some centres undefined) | -0.6 | 6.7 | 10.1% | -1.9% | / | 24.7%
CC(C)NC(=O)N(C)C[C@H]1Oc2c(NS(=O)(=O)c3ccc(F)cc3)cccc2C(=O)N([C@H](C)CO)C[C@@H]1C | -0.4 | 5.2 | 9.8% | -1.0% | / | 25.2%
COc1cc2c(cc1OC)C(c1cc([N+](=O)[O-])ccc1O)NCC2 (centres undefined) | 6.6 | -4.8 | 4.5% | 0.6% | -1.4 | -36.5%[inhibitor]
O=C(CNS(=O)(=O)c1ccc([N+](=O)[O-])cc1)N/N=C\c1ccc(O)cc1 | 4.5 | -8.2 | -8.8% | -3.6% | -16.5 | 26.6%
CC(C)N(C(=O)COC(=O)[C@@H]1CC(O)CN1S(=O)(=O)c1ccccc1[N+](=O)[O-])C(C)C (some centres undefined) | -0.6 | -3.5 | 18.8% | -0.1% | -0.1 | -1.3%[15.4 µM]
